gsp antagonist: antagonists of gsp mutant (McCune-Albright syndrome) | Potency, µM (highest dose often 76.9 µM), inactives show at the highest dose activity change, negative = inhibition, actives largely listed as inhibitors | gsp-mutant cells, cAMP HTRF, 30 min; control for the full effect not named in the record | AID 624288 | 340,000 compounds, 0.4% hits; active = falling curve of any shape with a large fitted effect; inconclusive = falling curve, mostly with a smaller effect; inactive = flat or rising curve; cell line not stated here;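 also: intracellular cAMP measured with PDE inhibitor Ro 20-1724 present during compound exposure; potency is read from the fitted curve at half-maximal effect; % is scaled to controls: 0 for no effect and ±100 for the full control effect; nearly all actives have a fitted effect of over 65% in size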
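Cells, 2000/well, grown 16–24 h in DMEM 10% FBS with 0.5 mg/ml G418, then compounds plus […] (300 uM addition stock), 30 min at 37C. cAMP read by HTRF (cAMP-d2 and anti-cAMP antibody-K in lysis buffer) after 30 min RT.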
ClpP mod: qHTS Assay for Activators of ClpP. 340,000 compounds, 1.9% hits. Potency, µM (titrated, usually from 57.5 µM), without a hit: top-dose activity change, negative = active. ATP-dependent Clp protease proteolytic subunit (Bacillus subtilis (strain 168)), P80244. AID 651965, 2013. purified B. subtilis ClpP, FRET peptide cleavage, 20 min; active = well fitted falling curve with a large enough effect; inconclusive = small, poorly fitted or top-dose-only effect; inactive = no such curve, though single readings can be large or run the other way; also: potency is read from the fitted curve at half-maximal effect; the source files actives as falling curves though it sought activators and does not explain the sign; nearly all actives have a fitted effect of over 65% in size; many hits overshoot -100%
Target sequence (P80244 whole entry, looked up): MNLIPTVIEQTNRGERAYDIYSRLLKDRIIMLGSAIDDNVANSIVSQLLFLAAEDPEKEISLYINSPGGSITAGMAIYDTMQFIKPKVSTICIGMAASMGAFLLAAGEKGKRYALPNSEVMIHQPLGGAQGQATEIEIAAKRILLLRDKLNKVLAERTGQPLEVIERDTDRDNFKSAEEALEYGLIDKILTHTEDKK
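ClpP 10 microg/mL final, pH 8 Tris/KCl buffer with BSA, glycerol, Tween-20; compound pinned in; FRET-FV substrate; RT 20 min; Ex320/Em430; ΔFRET vs ADEP 5.8 microM, DMSO, no enzyme.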
D2 ag: agonists of human D2 dopamine receptor (beta-arrestin). activation, % (concentration not given with the values). DiscoveRx PathHunter D2 beta-arrestin, luminescence, 90 min; 100% = 57 uM dopamine signal. 360,000 compounds, 0.084% hits; in the data active = activation above about 40%; inconclusive = about 15% to 40%; inactive = below about 15%; also: the text of the record calls up to 30% inactive
Target sequence (P14416 whole entry, looked up): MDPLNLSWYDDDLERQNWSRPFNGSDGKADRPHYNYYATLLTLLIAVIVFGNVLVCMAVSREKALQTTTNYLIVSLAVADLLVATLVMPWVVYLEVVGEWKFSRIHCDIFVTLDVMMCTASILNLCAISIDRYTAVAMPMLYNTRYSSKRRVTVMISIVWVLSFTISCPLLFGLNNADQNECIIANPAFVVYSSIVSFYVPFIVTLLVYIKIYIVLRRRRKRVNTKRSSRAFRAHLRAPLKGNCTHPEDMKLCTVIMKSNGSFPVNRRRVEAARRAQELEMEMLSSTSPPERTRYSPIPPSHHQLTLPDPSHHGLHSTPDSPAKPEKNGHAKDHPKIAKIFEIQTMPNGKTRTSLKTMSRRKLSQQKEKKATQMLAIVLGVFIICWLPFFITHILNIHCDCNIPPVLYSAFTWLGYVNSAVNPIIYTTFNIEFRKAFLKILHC
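DiscoveRx PathHunter D2 beta-arrestin cells (2,100/well) attached overnight, then compound-stimulated 90 min at 37 C in HBSS/10 mM HEPES/0.1% Tween-20 buffer; beta-galactosidase complementation read by luminescence after 1 h at ambient temperature. Dopamine 57 uM final (EC100) as control.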
Menin-MLL FL inh: displaces fluorescein MLL peptide from human menin; Fluorescence polarization, fluorescein-MLL peptide displacement from menin; FP activity change, % at 61.4 µM; 290,000 tested, under 10 active; AID 1766; inconclusive = falling polarisation curve, or a change in total fluorescence; inactive = total fluorescence flat and polarisation flat or rising; no compound was filed as active; the % refers to the polarisation; negative = inhibition;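 also: % of control where 0% means no effect; inhibitors lower the polarisation; unlabelled MLL peptide was the positive control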
Sfp inh: blocks B. subtilis Sfp PPTase activity; AID 1490; Biochemical Sfp PPTase activity, qHTS; Q9F4F7; Potency, µM, inactives show max response, negative = inhibition, actives largely listed as inhibitors; 310,000 compounds, 3.5% hits; active = well fitted inhibition curve with a large enough effect; inconclusive = small, poorly fitted or top-dose-only effect, or another doubt; inactive = no such curve, though single readings can be large or run the other way;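 also: the enzyme is Sfp with the accession as filed and its product quenches rhodamine fluorescence; potency is read from the fitted curve at half-maximal effect; 0% = enzyme reaction without inhibitor and -100% = no enzyme wells; top concentration of the series not given in the record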
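With Hepes-Na pH 7.6 buffer containing 10 mM MgCl2, Sfp (15 nM) modified BHQ-2-YbbR (12.5 uM) using rhodamine-CoA (5 uM). Two reads 30 minutes apart at 525/598 nm yielded each well's rate.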
gsp agonist: activates gsp, the McCune-Albright syndrome mutation | Potency, µM (doses to about 76.9 µM), inactives show at the highest dose activation (cAMP increase), actives largely listed as activators | AID 624287 | 340,000 compounds, 0.13% hits | gsp mutant cells, cAMP HTRF, 30 min; control for the full effect not named in the record; active = well fitted activation curve with a large enough effect; inconclusive = small, poorly fitted or top-dose-only effect, or another doubt; inactive = no such curve, though single readings can be large or run the other way; cell line not stated here;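 also: phosphodiesterase inhibitor Ro 20-1724 added with compounds to block cAMP breakdown; potency is read from the fitted curve at half-maximal effect; nearly all actives have a fitted effect of over 60% in size; about a fifth of the inactives were tested at one dose only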
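Cells stably selected in G418 were plated at 2000/well, grown 16-24 hr, then given compounds in DMSO with the PDE inhibitor […] (300 uM solution added) for 30 min at 37C; cAMP was read by HTRF.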
PINK1 modulator: PINK1 expression modulation; 410,000 compounds, 0.2% hits; Potency, µM (doses to about 76.6 µM), without a hit: at the highest dose activation (PINK1 increase), actives largely listed as activators; PINK1 immunofluorescence, high-content cytometry, 24 h; AID 624263; active = well fitted activation curve with a large enough effect; inconclusive = small, poorly fitted or top-dose-only effect; inactive = flat fitted curve, though single readings scatter; cell line not stated here;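 also: potency is read from the fitted curve at half-maximal effect; % of control where 0% means no effect; nearly all actives have a fitted effect of over 65% in size; a mitochondrial uncoupler was the plate control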
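Measures PINK1 amount and localization on or inside mitochondria by immunofluorescence. Stable cells get compounds at 5 concentrations for 24 hours before fixation and staining; CCCP controls included.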
* marks the source's active call; other numbers are inactive results; ? = inconclusive; · = no result given; [ ] = dose if it differs, or a comment.

SMILES | gsp antagonist | ClpP mod | D2 ag | Menin-MLL FL inh | Sfp inh | gsp agonist | PINK1 modulator
CN(Cc1ccc(F)cc1)Cc1nc(-c2ccccc2)no1 | -12% | -2.3% | 5.2 | -0.4 | 13% | 29%[15.4 µM] | 6.7%
Cc1noc(/C=C/c2ccco2)c1S(=O)(=O)N1CCC(C(=O)N2CCc3ccccc3C2)CC1 | -2% | -3.2% | -3.9 | 18 | 56µM* | 5% | -4.2%
NC(CS)C(=O)O (stereo not drawn) | · | -0.3% | · | 1.0 | 18µM* | · | 0.0%
CN(c1ccccc1C(=O)Nc1ccc(F)c(F)c1)S(C)(=O)=O | -1% | · | 6.3 | -3.2 | 2% | -3% | -1.9%
COc1ccc(C2Nc3cc(OC)ccc3-n3cccc32)cc1 (stereo not drawn) | -13% | · | 9.8 | -0.1 | -27% | 28% | 2.1%
OCC[C@@H]1C[C@H](O)[C@@H](O)[C@@]2(OCCCc3ccccc32)O1 | 4% | -0.1% | -3.7 | 1.4 | 22% | 31% | 0.7%
COc1ccc2cc3c(N)c(C(=O)NCc4ccco4)sc3nc2c1 | 17% | -6.9% | 2.7 | ? | -7% | 0% | 8.1%
C=CCOc1cccc(C2/C(=C(/O)c3ccc(Cl)cc3)C(=O)C(=O)N2CCN2CCOCC2)c1 (stereo not drawn) | -16% | -0.1% | -3.7 | 2.6 | 18% | 26% | -0.7%
COc1ccc(OC)c(NC(=O)COC(=O)CCNc2ccccc2OC)c1 | -19% | · | 1.1 | · | · | 12% | -3.2%
COc1cccc(-c2nn(C)c3sc(C(=O)NCc4ccc(C)o4)cc23)c1 | -23% | ? | 3.1 | 11 | 3.5µM* | 25% | -0.9%
Cc1nonc1NC(=O)CSc1nnc(-c2ccoc2C)n1CC(C)C | 2% | 0.1% | -1.8 | 12 | -21% | -19% | 0.0%
Cc1ccc(NC(=O)O/N=C2\CCCCC2c2ccc([N+](=O)[O-])cc2[N+](=O)[O-])cc1 (stereo not drawn) | -11% | -8.7% | 2.9 | -1.1 | -6% | -15% | 3.6%
NC(=O)CN1C(=O)C2C3CCC(C3)C2C1=O (stereo not drawn) | · | -1.4% | 10 | · | · | 10% | 0.9%
CCCNc1nc(=S)n(-c2ccccc2)c(C)c1C(C)=O | 17% | · | -4.9 | 2.6 | 4% | 2%[15.4 µM] | -0.1%
O=C1CN=C(Nc2cccc(C(F)(F)F)c2)N1C1CCCC1 | 8% | 0.7% | -0.4 | 3.2 | 5% | -2% | 5.8%[38.3 µM]
COc1ccc(C(=O)OC2C(OC)OCC(O)C2O)cc1 (stereo not drawn) | 7% | · | -1.9 | · | · | -35%[inhibitor] | -1.0%
O=C1C2CCCCN2C(=O)N1CCCCN1CCN(c2ccc(F)cc2)CC1 (stereo not drawn) | 7% | -2.9% | -5.2 | -4.4 | -26% | 4% | 1.1%
CCCn1c(SCN2C(=O)c3ccccc3C2=O)nc2cc(Cl)ccc2c1=O | 40%[activator] | 25µM* | -1.8 | -0.9 | 8% | ? | 20%
CCNC(=S)NCc1ccc2[nH]c(C)cc2c1 | 5% | 0.7% | -3.9 | 0.9 | -12% | -6% | 0.0%
O=C(Oc1cccc(-n2cnnn2)c1)c1ccccc1 | -15% | · | -0.9 | -1.0 | 12% | 2%[15.4 µM] | 0.2%
COc1ccc(N2C(=O)CCC(C(=O)NCc3ccccn3)C2c2ccc(F)cc2)cc1 (stereo not drawn) | 1% | -1.6% | -2.6 | 7.3 | 8% | 8% | 1.5%
COc1ccc(NC(=O)Nc2cccs2)cn1 | -8% | · | -1.9 | -16 | 56µM* | -21%[15.4 µM] | -0.5%
C[C@@H](NC(=O)c1ncn(Cc2ccccc2)c1C(=O)N[C@H](C)c1ccccc1)c1ccccc1 | -15% | 0.1% | -1.2 | · | · | · | 2.1%
CCCC(=O)N1CCC1(C)C(=O)Nc1cc(-c2ccccc2)nn1C (stereo not drawn) | · | -2.7% | -5.1 | · | · | · | 4.3%
COC(=O)c1ccc(NC(=O)c2cccc(Cl)c2)o1 | 7% | 0.0% | 1.6 | 1.5 | 5% | 3% | 0.8%
CCNC(=S)NNC(=O)CCn1c2ccccc2c2ccccc21 | 32% | ? | -4.7 | -2.3 | 26% | -13% | 0.6%
COc1ccccc1Cn1c(=S)[nH]c2cc(C(=O)NCC3CCCO3)ccc2c1=O (stereo not drawn) | ? | · | -5.6 | 0.5 | 6% | -12%[15.4 µM] | 7.7%
CCCCNS(=O)(=O)NC(=O)C1=C(N2CCCC2)COC1=O | 6% | -0.7% | -1.0 | · | · | · | -0.8%
CC(NC(=O)c1cc2c(cc1Cl)N1CCCCCC1=NS2(=O)=O)c1ccc(S(N)(=O)=O)cc1 (stereo not drawn) | 1% | 0.4% | 0.0 | · | · | 1%[15.4 µM] | -0.2%
COc1cccc(-c2ocnc2C(=O)Nc2ccc3c(c2)CCC3)c1 | -17% | · | -4.6 | -3.1 | 3% | 5% | 15%
O=C(CCC(=O)N1CCN(c2ccc(F)cc2)CC1)c1ccccc1 | -2% | -0.1% | 1.1 | -2.0 | 6% | 27% | 0.2%
CCOc1ccc(CN(C)C(=O)CNC(=O)c2ccc3ccccc3c2)cc1OC | 1% | 0.6% | -2.0 | -1.6 | 13% | -3%[15.4 µM] | 6.3%
CCCN(CC(=O)Nc1ccccc1OC)C(=O)CCC(=O)c1ccc(F)cc1 | -3% | -0.2% | -2.0 | · | · | -19% | -0.1%
OC(c1ccc2c(c1)OCO2)c1ncc(-c2ccccc2)[nH]1 (stereo not drawn) | · | 1.1% | -6.4 | · | · | · | 0.2%
O=C(NCc1nnc(SCC(=O)N2CCCC2)o1)c1c(F)cccc1Cl | 3% | 0.2% | -2.3 | 3.4 | 6% | -2% | 1.5%
Cc1ccc(CNC(=O)CN(C(=O)C2(C)CC(=O)N=C3C=CC=CN32)c2ccccc2F)cc1 (stereo not drawn) | 4% | · | -4.6 | 0.0 | 3% | -6% | 1.5%
O=C(COC(=O)/C=C/c1ccc(Cl)cc1)NC1CCS(=O)(=O)C1 (stereo not drawn) | · | -0.8% | -5.3 | · | · | 8% | -0.7%
Cc1ccccc1-c1nc(CS(=O)(=O)CC(=O)NCc2ccc(F)cc2)c(C)o1 | -12% | 55% | -5.2 | 3.1 | -7% | -15% | 3.3%
O=C(NCCN1CCOCC1)c1cn(CCc2ccccc2)nn1 | 3% | -0.4% | -1.2 | 2.2 | 4% | 18% | 1.5%
c1ccc(-c2ccc(OCCOCCn3cncn3)cc2)cc1 | -2% | -5.5% | 0.8 | 1.0 | -19% | -39% | 1.1%
O=C(O)c1ccccc1Nc1ccc(OC(F)F)cc1 | -13% | · | -3.7 | -4.1 | 20% | -29%[15.4 µM] | 4.2%
Cc1cc(C(=O)Nc2ccc3c(c2)OCCO3)co1 | 2% | 0.8% | -1.1 | 4.6 | ? | 2% | 3.2%[38.3 µM]
O=C(O)CN1C(=O)c2ccc(Oc3ccc4c(c3)C(=O)N(CC(=O)O)C4=O)cc2C1=O | 9% | -1.7% | -6.5 | 2.3 | -1% | -21% | 0.3%
CC(C)N1CCN(Cc2ccc(C#CC(C)(C)O)s2)CC1CCO (stereo not drawn) | 12% | · | -2.6 | 3.9 | 16% | -2%[15.4 µM] | -1.8%
CN(C(=O)c1cccc(NC(=O)Cc2ccc(NC(=O)C3CCCN(C(=O)CCc4ccccc4)C3)cc2)c1)C1CCC1 (stereo not drawn) | ? | 0.1% | 5.5 | · | · | · | -1.3%
N#Cc1cc2c(nc1SCC(=O)Nc1sc3c(c1C#N)CCC3)CCCC2 | -6% | -1.2% | -1.7 | 8.1 | 20% | 3% | 12%
COc1ccc(CN2CCN(Cc3ccccc3)C(CCO)C2)cc1OC (stereo not drawn) | 15% | 1.2% | -1.9 | 0.5 | 12% | -29% | -1.3%
COC(=O)c1sccc1S(=O)(=O)Nc1ccc(S(N)(=O)=O)cc1 | -1% | -0.6% | -1.4 | 4.0 | -10% | -8%[15.4 µM] | -2.4%
CCOC(=O)c1cccc(NC(=O)c2cnc3ccccc3n2)c1 | -26% | -2.5% | -3.1 | 0.6 | ? | -13% | 9.0%
CCOc1ccc(CCNC(=O)COC(=O)COc2cc(C)cc(C)c2)cc1OCC | 6% | -1.7% | -3.2 | · | · | ? | -4.9%
CCN(CC(=O)Nc1cc(Cl)ccc1C)C(=O)C1CCCCC1 | -43% | · | -0.7 | -0.2 | 4% | 14%[15.4 µM] | 2.2%
CCOc1cccc2sc(Nc3nc4ccc(NC(C)=O)cc4s3)nc12 | 0% | 12% | 4.0 | 1.2 | 4% | -22% | 8.9%
CCCCn1c(SCC(=O)Nc2cc(C(F)(F)F)cc(C(F)(F)F)c2)nnc1C(CC)N(C)C (stereo not drawn) | -4% | -1.6% | 0.9 | 3.7 | 26% | 15%[15.4 µM] | ?
Cc1cccc(NC(=O)CCSc2nc(C)cc(C)n2)c1 | -1% | -1.2% | -1.5 | 3.0 | -10% | -1% | 2.9%
O=C(O)c1ccc2[nH]c3c(c2c1)CSCC3 | 0% | 1.5% | -3.6 | 2.1 | 40µM* | -11% | 2.9%
CC(C)(C)C(=O)Nc1nnc(SCc2cccc(F)c2)s1 | -1% | 0.6% | -2.9 | 4.4 | -11% | 23% | 2.8%
c1cncc(CSc2ccc(-c3cccnc3)nn2)c1 | -1% | · | 1.5 | 0.9 | 16% | 1% | -0.6%
O=C(Cc1ccccc1)N1CCN(C(=O)c2ccc([N+](=O)[O-])cc2)CC1 | -4% | -0.5% | -5.0 | -2.8 | 20% | 4% | -1.9%
CC1=Nc2ccccc2N=C(NC(=O)/C=C/C(=O)O)C1c1ccccc1 (stereo not drawn) | -1% | · | 1.3 | 2.0 | 16% | 11%[15.4 µM] | 0.8%
